Bioassay records as filed in PubChem.
Mtb growth – Confirmatory growth inhibition assay against Mycobacterium tuberculosis H37Rv, potency (AID 1949). 100,000 compounds, 1.6% hits. inhibition, % at 10 µg/mL, or IC50 in µg/mL where a hit was titrated. most inactive calls were filed without a number and no value below 0 was filed;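 active = confirmed in a dose series; inconclusive = about 50% or more but not retested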;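 note: bacteria grown 7 days with compound before Alamar blue readout; 0% = untreated bacteria and 100% = reference antibiotic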
* marks the source's active call; other numbers are inactive results; i = inactive; ? = inconclusive. An excerpt; rates above refer to the full screens.

SMILES	Mtb growth
NC1=NN(c2ccccc2)CC1	11.8%
O=C1CCCC2=C1C(c1cccc3ccccc13)n1ncnc1N2 (centres undefined)	i
CCOC(=O)C(=O)N1CCN(C(=O)c2ccco2)CC1	i
Cc1cccc(C(C)C)c1NC(=O)Cc1ccccc1[N+](=O)[O-]	2.0%
O=C(NCCN1CCN(C(=O)c2cccc(F)c2)CC1)C(=O)Nc1ccccc1	i
CCC(=O)Nc1ccc(S(=O)(=O)NCCc2ccccc2)cc1	i
N#Cc1c(C(F)(F)F)cc(-c2cccs2)nc1SCC(=O)Nc1ccccc1F	i
CCOC(=O)c1sc(NC(=O)c2ccc(C)cc2C)c(C#N)c1C	i
Cc1nn2c(-c3cccc(NC(=O)c4ccccc4Cl)c3)nnc2c2ccccc12	3.7%
CCc1ccc(NC(=O)C2CCN(S(=O)(=O)c3ccc(C)cc3)CC2)cc1	27.4%
O=C(CSCc1c(Cl)cccc1Cl)NCC1CCCO1 (centres undefined)	i
COc1ccc(/C=C/C(=O)Oc2ccc3c(C)cc(=O)oc3c2C(C)=O)cc1	1.5%
COc1ccc(NC(=O)CC(c2ccc(OC(C)C)cc2)c2ccccc2OC)cc1 (centres undefined)	i
CC1=C(C(=O)OC2CCCCCC2)C(c2ccc(C)o2)C2=C(CCCC2=O)N1 (centres undefined)	0.0%
O=C(NCc1ccncc1)C(=O)N1CCCCCC1	i
Nn1c(SC/C=C/c2ccccc2)nnc1-c1ccco1	i
CC1(C)CC(=O)C2=C(C1)N(Cc1ccccc1Cl)C(=O)C2(NC(=O)c1ccccc1)C(F)(F)F (centres undefined)	i
COC(=O)C(C)n1cnc2scc(-c3ccc(OC)cc3)c2c1=O (centres undefined)	10.8%
COc1ccccc1NC(C(N)=O)c1ccc(Br)cc1 (centres undefined)	i
Cn1nc([N+](=O)[O-])nc1Sc1nnnn1-c1ccccc1	i
O=C(NC(=S)NCc1ccccc1)c1ccccc1Cl	0.1%
CCSc1ccccc1C(=O)Nc1cccc(C(F)(F)F)c1	i
N#CCNC(=O)C(Sc1ccccc1)c1ccccc1 (centres undefined)	i
O=C(NC(=S)c1cccc2ccccc12)N(CCO)c1ccccc1	2.0%
COC(=O)c1ccc(C(=O)OC)c(NC(=O)C(C)(C)Oc2ccc(Cl)cc2)c1	i

14 structures out of the list, ordered by molecular weight, lowest first.
SMILES	Mtb growth
O=C(NCc1ccncc1)C(=O)N1CCCCCC1	i
N#CCNC(=O)C(Sc1ccccc1)c1ccccc1 (centres undefined)	i
Nn1c(SC/C=C/c2ccccc2)nnc1-c1ccco1	i
Cn1nc([N+](=O)[O-])nc1Sc1nnnn1-c1ccccc1	i
O=C1CCCC2=C1C(c1cccc3ccccc13)n1ncnc1N2 (centres undefined)	i
CCC(=O)Nc1ccc(S(=O)(=O)NCCc2ccccc2)cc1	i
O=C(CSCc1c(Cl)cccc1Cl)NCC1CCCO1 (centres undefined)	i
COc1ccccc1NC(C(N)=O)c1ccc(Br)cc1 (centres undefined)	i
CCOC(=O)c1sc(NC(=O)c2ccc(C)cc2C)c(C#N)c1C	i
O=C(NC(=S)c1cccc2ccccc12)N(CCO)c1ccccc1	2.0%
CC1=C(C(=O)OC2CCCCCC2)C(c2ccc(C)o2)C2=C(CCCC2=O)N1 (centres undefined)	0.0%
CCc1ccc(NC(=O)C2CCN(S(=O)(=O)c3ccc(C)cc3)CC2)cc1	27.4%
O=C(NCCN1CCN(C(=O)c2cccc(F)c2)CC1)C(=O)Nc1ccccc1	i
Cc1nn2c(-c3cccc(NC(=O)c4ccccc4Cl)c3)nnc2c2ccccc12	3.7%

The results go on.
SMILES	Mtb growth
COC(=O)Cc1c(C)c2ccc(OCC(=O)N(C)C)c(C)c2oc1=O	0.9%
O=C(CC(c1ccccc1)c1ccccc1)N1CCN(c2ccc(F)cc2)CC1	2.9%
COc1cc(OC)cc(C(=O)NC(=S)Nc2ccc(C(=O)O)cc2)c1	i
COc1ccccc1OCc1nc2c3c4c(sc3ncn2n1)CCCCC4	7.2%
COC(=O)c1ccc(Cn2cnc3sc(C(=O)Nc4ccccc4OC)c(C)c3c2=O)cc1	i
Cc1nc(SCC(=O)N2c3ccccc3CCc3ccccc32)n[nH]1	i
O=C(Nc1ccc(-c2noc(CCc3ccccc3)n2)cc1)c1cccs1	?
COc1ccc(OC)c(C2NC(=S)NC(C)=C2C(=O)OC(C)C)c1 (centres undefined)	0.4%
COc1ccc(Cn2c(=O)oc3ccc(C)cc32)cc1OC	0.1%
Cc1ccc(S(=O)(=O)NC2CCCCC2)cc1	i
O=C(Nc1ccccc1-c1ccccc1)c1ccncc1	i
O=C(CSc1nc2ccccc2o1)OCc1ccccc1	i
CNC(=O)CN(c1ccc(OC)cc1)S(=O)(=O)c1ccc(F)cc1	0.2%
CCCOc1ccc(C(=O)NC(=S)Nc2ccccc2N2CCN(C(=O)c3ccccc3)CC2)cc1	i
Cc1cccc(-n2c(SC(C)C(=O)N3CCCCC3)nc3sc4c(c3c2=O)CC(C)(C)OC4)c1 (centres undefined)	0.8%
CC1CCN(C(=O)c2cccc3c2-c2ccccc2C3=O)CC1	i
COC(=O)c1sc(NC(=O)c2ccc(C(C)(C)C)cc2)c(C#N)c1C	47.3%
C=CCOn1c(=O)c(-c2ccc(OC)c(OC)c2)[n+]([O-])c2ccccc21	i
CCOC(=O)COc1c(Cl)cc(C2NC(=S)NC(c3ccccc3)=C2C(C)=O)cc1OC (centres undefined)	i
Fc1ccccc1OCCCCSc1ncccn1	12.3%
OC(CN1CCCCCC1)CN1c2ccccc2Sc2ccccc21 (centres undefined)	9.1µg/mL*
Cc1ccc(NC(=O)CCN2CCOCC2)cc1C	i
Cc1cccc(NC(=S)Nc2ccccc2F)c1	i
COC(=O)c1ccccc1NC(=O)c1ccc(NC(=O)c2ccco2)cc1	5.5%
Cc1nc2ccc(C(=O)Nc3cccc([N+](=O)[O-])c3)cc2s1	i
(continued)
SMILES	Mtb growth
CC1CCc2c(sc(NC(=O)c3sc4cc(Cl)ccc4c3Cl)c2C#N)C1 (centres undefined)	i
COc1ccc(OC)c(S(=O)(=O)N2CCC(C(=O)O)CC2)c1	2.2%
C=CCNC(=O)CN(Cc1cccc(C)c1)S(=O)(=O)c1ccc(Cl)cc1	i
CC(C(=O)N1CC2(C)CC1CC(C)(C)C2)N1C(=O)c2ccccc2C1=O (centres undefined)	0.8%
C=CCOc1c(Cl)cc(CNn2cn[nH]c2=S)cc1OC	i
COC(=O)c1ccc2c3c(cccc13)CC2	i
O=C1c2cccc3cccc(c23)C(=O)N1c1ccc2[nH]c(=O)[nH]c2c1	33µg/mL*
COc1cc(NC(=O)c2ccc(Br)o2)c(C(=O)O)cc1OC	i
Cc1cccc(/C(N)=N/OC(=O)CCCN2C(=O)c3ccccc3C2=O)c1	i
COc1cccc(OC)c1C(=O)Nc1cccc(-c2nc3cc(C)ccc3o2)c1	i
COc1ccc(NC(=O)c2ccccc2SCc2ccccc2)c(C)c1	9.1%
O=C(Cc1cccc2ccccc12)NCC1COc2ccccc2O1 (centres undefined)	0.3%
Cc1ccc(C(CC(=O)O)c2ccccc2)c(O)c1 (centres undefined)	i
COc1cccc(NC(=O)COc2cc(C)c(Br)c(C)c2)c1	i
CC(Oc1ccccc1)C(=O)Nc1ccc(S(=O)(=O)N(C)Cc2ccccc2)cc1 (centres undefined)	i
O=C(c1cn(-c2ccccc2)nc1-c1cccc(Cl)c1)N1CCOCC1	i
CC(=O)Nc1ccc(C(=O)CS(=O)(=O)c2ccc(C)cc2)cc1	i
COC(=O)c1ccc(NC(=O)COc2cc(Cl)c(Cl)cc2Cl)cc1	i
COc1ccc(NC(=O)NN2CCOCC2)cc1OC	i
CCC(=O)Nc1ccc(Cl)c(NC(=O)c2sc3ccccc3c2Cl)c1	i
C=CCN(CC=C)C(=O)c1cc(-c2ccc(Cl)cc2)nc2ccccc12	7.3%
CC(C)C(NC(=O)c1ccccc1)C(=O)NCc1ccccn1 (centres undefined)	2.5%
CNS(=O)(=O)c1ccc(NC(=O)c2sc3ccccc3c2Cl)cc1	5.4%
O=c1[nH]c(=O)n(-c2ccc(Cl)cc2)c2c1C(C(F)(F)F)(C(F)(F)F)N=C(c1cccnc1)N2	i
O=C(N1CCCCCC1)N1CCN(S(=O)(=O)N2CCOCC2)CC1	i
(next part)
SMILES	Mtb growth
O=C1C2ON(c3ccccc3)C(c3ccc(OC(F)F)cc3)C2C(=O)N1Cc1ccccc1 (centres undefined)	i
COc1ccc(NC(=O)N2CCc3c([nH]c4ccccc34)C2C)cc1 (centres undefined)	i
CC1(C)C(=O)OC(/C=C\c2ccccc2)C(C)(C)C1=O (centres undefined)	i
O=C(CC1C(=O)N(c2ccccc2)C(=O)N1CCc1ccccc1)Nc1ccc(F)cc1 (centres undefined)	i
O=C(CCc1ccccc1)Nc1ccc2ccccc2n1	i
COc1ccc(S(=O)(=O)N2CCN(Cc3cccc(C)c3)CC2)cc1	4.2%
O=C(C1Cc2ccccc2CN1S(=O)(=O)c1cccs1)N1CCOCC1 (centres undefined)	i
Cc1cccc(OCC(=O)N(C2CCCCC2)C2CCCCC2)c1	0.9%
CCN(CC)S(=O)(=O)c1ccc2cc(OC)ccc2c1	7.1%
CCCc1cc(=O)n2[nH]c(-c3cccnc3)nc2n1	i
CN(C)CCNC(=O)c1ccc(S(=O)(=O)N2CCCC2)cc1	i
COc1ccc2c(c1)c(=O)oc1cc(OCC(=O)NC3CC3)ccc12	i
COc1ccc(CNCCC2=CCCCC2)cc1	3.7%
O=C1CC(C(=O)Nc2nccs2)C(c2ccccc2)O1 (centres undefined)	i
COc1c(C)cc(Br)cc1C(=O)Nc1cc2nn(-c3ccccc3)nc2cc1Cl	i
CCN1C(=O)C(CC(=O)Nc2ccc(F)cc2)N(Cc2ccc3c(c2)OCO3)C1=S (centres undefined)	i
Cc1cc(C)c(C)c(S(=O)(=O)Nc2ccc(C(=O)N3CCCCC3)cc2)c1C	2.8%
COc1ccc(C)cc1NC(=S)Nc1ccccc1SC	i
CCOC(=O)c1c(C)oc2ccc(OC(C(=O)OCC)c3ccccc3)cc12 (centres undefined)	?
COc1ccc(S(=O)(=O)Nc2c(C)cccc2C(C)C)cc1I	2.0%
COc1ccccc1CNC(=O)Nc1ccc(C(C)=O)cc1	i
C=COCCNC(=O)C(=O)Nc1cccc(Cl)c1Cl	i
Cc1cccc(Cn2cnc3ccccc32)c1	i
CC(=O)c1ccc(NC(=O)c2cnsn2)cc1	i
CCOc1ccc(N(CCCCO)C(=O)NC(=O)c2ccc(C)c(Br)c2)cc1	3.5%
Remaining list, next part.
SMILES	Mtb growth
O=C(CC1Sc2ccccc2NC1=O)Nc1ccc(F)c(Cl)c1 (centres undefined)	i
Cc1cc(=O)n(-c2ccc(S(=O)(=O)O)cc2)[nH]1	1.6%
Cc1nc(SCc2ccc(OCCC(C)C)cc2)n[nH]1	12.7%
Cc1ccc(-c2nc3ccccc3s2)cc1N	i
COc1ccc(CCNC(=S)N2CCN(c3ccccn3)CC2)cc1OC	i
Cn1c(SCC(=O)c2ccc(Br)cc2)nnc1-c1cccc(Cl)c1	1.4%
CCNC(=S)Nc1ccc(OC(F)(F)F)cc1	i
OCCNCCCOc1cccc(Br)c1	i
Cc1ccc(NC(=O)c2ccc3c(c2)C(=O)N(CC(C)C)C3=O)c(C(=O)O)c1	i
CCCc1nnc(NC(=O)c2nc(SCc3ccccc3)ncc2Cl)s1	i
CCOC(=O)c1ccc(NC(=O)CCC2CCCCC2)cc1	32.6%
Cc1nc(SCC(=O)N2CCCc3ccccc32)n[nH]1	i
OC1CCN(C(=S)Nc2ccc(F)c(Cl)c2)CC1	i
Cc1nn(Cc2ccccc2)c(C)c1CCC(=O)O	i
CC(=O)c1cccc(NC(=O)NCc2cnn(C)c2)c1	i
COc1ccc(OC)c(-n2c(-c3ccccc3)n[nH]c2=S)c1	i
COc1ccc(F)cc1S(=O)(=O)NC1CCCC1	i
CCCc1nnc(NC(=O)c2c(OC)cccc2OC)s1	i
O=C(Nc1ccccn1)c1cc(I)ccc1NC(=O)c1cccc2ccccc12	11.4%
O=C(CCN1C(=O)c2ccc([N+](=O)[O-])cc2C1=O)Nc1ccccc1-c1ccccc1	i
Fc1cccc(Nc2ncnc3sc4c(c23)CCC4)c1	25.1%
N=C1C(c2nc3ccccc3s2)=C(O)CN1c1ccc(F)c(Cl)c1	i
CC(C)C1Nc2ccc(S(N)(=O)=O)cc2C2C=CCC21 (centres undefined)	i
CCCCc1ccc(NS(=O)(=O)c2cccc(C(=O)O)c2)cc1	i
O=C1CCCC2=C1C(c1cccnc1)n1c(nc3ccccc31)N2 (centres undefined)	i

Continued, starting with the last seven of the part before.
SMILES	Mtb growth
O=C(Nc1ccccn1)c1cc(I)ccc1NC(=O)c1cccc2ccccc12	11.4%
O=C(CCN1C(=O)c2ccc([N+](=O)[O-])cc2C1=O)Nc1ccccc1-c1ccccc1	i
Fc1cccc(Nc2ncnc3sc4c(c23)CCC4)c1	25.1%
N=C1C(c2nc3ccccc3s2)=C(O)CN1c1ccc(F)c(Cl)c1	i
CC(C)C1Nc2ccc(S(N)(=O)=O)cc2C2C=CCC21 (centres undefined)	i
CCCCc1ccc(NS(=O)(=O)c2cccc(C(=O)O)c2)cc1	i
O=C1CCCC2=C1C(c1cccnc1)n1c(nc3ccccc31)N2 (centres undefined)	i
COc1cc(/C=C/c2ccc3ccccc3n2)cc(OC)c1OC(C)=O	5.3%
Nc1nnc(Sc2ccc([N+](=O)[O-])c3ncccc23)s1	3.47µg/mL*
CS(=O)(=O)N(CC(=O)N1CCN(c2ccccc2F)CC1)c1ccc2c(c1)OCCO2	i
O=C(O)CSc1ccc(Br)c2cccc(C(=O)O)c12	i
Cc1ccc(SCC(=O)Nc2cc([N+](=O)[O-])ccc2C)cc1	i
Cc1cc(C)cc(C(=O)NCc2ccc(F)cc2)c1	i
Cc1c(-c2cccc(Cl)c2)nc2ccccc2c1C(=O)N1CCC2(CC1)OCCO2	i
O=C(Nc1nc(SCc2ccc(F)cc2)ns1)c1cc(F)c(F)cc1Cl	2.35µg/mL*
COc1ccc(-c2coc3cc4oc(=O)c(C)c(C)c4cc23)cc1	2.6%
Cc1nn2c(CN(c3ccccc3)S(=O)(=O)c3ccccc3)nnc2c2ccccc12	i
COc1cc(OC)cc(C(=O)NCCSC2CCCCC2)c1	i
CCCNc1c(F)c(F)c2c(C)c3ccccc3nc2c1F	0.3%
COCCSc1nnc(NC(=O)CSc2ccccc2)s1	i
